High-throughput results: PubChem, ICCB-Longwood Screening Facility, Harvard Medical School
AID504770: growth inhibitors of E. coli YBA685 in a screen for V. cholerae RctB (chromosome II replication) inhibitors | E. coli YBA685 rctB-dependent plasmid, OD600 growth, 3 h; active compounds read low | z-score (test concentration not listed) | 130,000 tested, 0.27% active | AID 504770;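 active = z-score under -2 on both plates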;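 also: wells of about 30 µL received 100 nL stock; score is relative to mean and SD of the test wells; the first replicate is given; strong numbers were not always called active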
CapD inh: CapD enzyme inhibition; purified CapD enzyme, fluorescence intensity read-out; active compounds read low; some hits fall short of the stated cut; z-score (test concentration not listed); 140,000 tested, 0.23% active;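 active = z-score under -4 in either of two replicates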;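 also: stock transfer was 100 nL into about 40 µL; score is relative to mean and spread of the plate; one replicate is shown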
* = called active by the depositor; nt = no result given. An excerpt; count on the stated rates, not on these rows.

Compound | AID504770 | CapD inh
CCOc1ccc(C2CC(=O)NC(SCC(=O)Nc3ccc(Br)cc3)=C2C#N)cc1 (configuration not stated) | nt | 0.72
CCCNC(=O)CSc1nnc(-c2cccs2)o1 | -0.9 | nt
CCNC(=O)c1c(-c2c(Cl)cccc2Cl)noc1C | -0.75 | 0.095
COC=Nc1c(C(=O)OC)n(Cc2ccccc2)c2ccccc12 | -0.4 | nt
CC(=O)Oc1ccc(-c2ccc(C(=O)NCCc3ccccn3)cc2)cc1 | -0.2 | -0.41
Cc1cccc(Cn2c(=O)n(Cc3ccco3)c(=O)c3sc4ccccc4c32)c1 | 0.25 | 22
CCOC(=O)c1ccc(-n2c(C)cc(/C=c3\sc4nc5ccccc5n4c3=O)c2C)cc1 | nt | 0.27
Cc1cc2oc(=O)cc(-c3cc4ccccc4o3)c2cc1O | -0.95 | nt
CCCn1c(-c2cccs2)nc2ccccc21 | 0.5 | 86
Cc1cc(C)nc(NS(=O)(=O)c2ccc(NC(=O)/C(C#N)=C/c3ccc(C(C)C)cc3)cc2)n1 | nt | -1.2
CCOc1ccccc1COC(=O)c1cccc(-n2cnnn2)c1 | -0.7 | nt
COc1ccccc1C(=O)COC(=O)c1ccc(CN2CCCC2=O)cc1 | -0.45 | nt
ClCCOc1ccc(Br)cc1OCCCl | -0.85 | 0.34
Cc1ccc2[nH]c(=O)c(CN(CCCO)C(=O)NC3CCCCC3)cc2c1 | -0.2 | nt
O=C(O)COc1nc(-c2ccccc2)sc1C(=O)O | -0.8 | 6.3
Cn1c2ccccc2c2ccccc21 | -0.75 | nt
CCC[B-]1(CCC)N=C(N(C)C)Nc2[nH]c3ccccc3[n+]21 | nt | -0.62
N#Cc1c(-c2ccc(Cl)cc2)c(C#N)c2sc3ccccc3n2c1=O | -0.2 | nt
CCc1nc2ccccc2nc1N1CCN(C(=O)c2cccs2)CC1 | -0.5 | 4.5
O=C1NC(c2cccc3ccccc23)Nc2sc3c(c21)CCCC3 (configuration not stated) | nt | -0.47
CSC1=NCCN1C(=O)c1c(-c2c(F)cccc2Cl)noc1C | nt | 0.11
CN(c1ccc(-c2csc(NC(=O)CCCc3nc4ccccc4c(=O)[nH]3)n2)cc1)S(C)(=O)=O | -2.5 | nt
CC(C)OC(=O)CCc1nc2ccccc2[nH]c1=O | 0 | 52
CCOc1ccc(-c2nc3ccc(Br)cc3c(C(=O)O)c2C)cc1 | -0.9 | 13
Cc1c(C(=O)N(Cc2ccccc2)Cc2cccnc2)cnn1-c1ccc(Cl)cc1 | 0.4 | -1.6
NC(=O)c1ccccc1-n1ccnc1 | -0.45 | 0.02
COc1cccc(N2C(=O)CC(Sc3ccccc3N)C2=O)c1 (configuration not stated) | 1.4 | -0.13
COc1ccc2c(c1)OC1=C(C(=O)CCC1)C2C1=C(O)CCCC1=O (configuration not stated) | -1.1 | -1.2
Cc1csc(=Nc2ccccc2)n1-c1ccccc1 | 0.35 | nt
CCN(CC)S(=O)(=O)c1ccc(C(=O)N(Cc2ccccc2)C(C)C)cc1 | -0.1 | -0.42
CCOc1ccc(N2C(=O)CC(N(CCc3ccccc3)C(C)=O)C2=O)cc1 (configuration not stated) | -0.75 | nt
COCc1cc(N2CCOCC2)nc(S(=O)(=O)Cc2ccc(Cl)cc2)n1 | nt | -0.5
O=C(CCOc1ccccc1)Nc1nc2cc3c(cc2s1)OCO3 | 0.5 | nt
CCn1cnc2sc(C)c(C)c2c1=O | 1 | nt
O=C(O)CCS(=O)(=O)/C=C/c1ccccc1 | nt | 0.29
O=C(CCN1N=C(c2ccccc2)CCC1=O)N1CCC2(CC1)OCCO2 | -0.5 | 5.1
Cc1nc(N2CCOCC2)c2c(C)c(C(=O)N3CC(C)CC(C)C3)sc2n1 (configuration not stated) | nt | -0.17
COC(=O)C1CC(O)CN1S(=O)(=O)c1ccc2ccccc2c1 (configuration not stated) | -0.6 | nt
CCOC(=O)C1=C(C)NC(C)=C(C(=O)OCC)C1c1cn(-c2ccccc2)nc1-c1ccc(OC)c(OC)c1 | nt | 1.2
CCOC(=O)C1=C(O)CN(C)C1=O | -0.35 | 0.87
Cn1c(=O)c2c(nc(SCc3nc(N)nc(N4CCCCC4)n3)n2C)n(C)c1=O | 0.55 | 0.44
CC1(CC(=O)N/N=C/c2ccc(-c3cccc(C(F)(F)F)c3)o2)OCCO1 | -0.95 | 9.6
O=C(Nc1ccc(Oc2ccc3ccccc3c2Br)c(Cl)c1)c1cc(Cl)cc(Br)c1O | nt | 11
CN(Cc1ccco1)C1CCCCC1NS(=O)(=O)c1ccc(Cl)cc1 (configuration not stated) | -0.5 | 0.18
COc1ccc(C2=NN(CN3C(=O)C(=O)c4ccccc43)C(c3ccc(Br)cc3)C2)cc1 (configuration not stated) | nt | -0.18
COc1ccccc1N1CCN(S(=O)(=O)c2c(C)sc3ncn(CC(=O)NCCN4CCOCC4)c(=O)c23)CC1 | -0.35 | -0.36
COc1ccccc1S(=O)(=O)Cc1ccc(C(=O)NC2CCCCC2)o1 | -0.2 | 0.63
COc1cc(NC(=O)C(C)OC(=O)Cc2ccccc2)cc(OC)c1 (configuration not stated) | -0.3 | nt
S=C(NC1Cc2ccccc2C1)N1CCCC1 | 1.1 | nt
Cc1cc(C)c(C2C(=O)[C@H]3[C@@H](C2=O)N2CCCN2[C@@H]3c2ccccc2)c(C)c1 (some centres not stated) | nt | -0.15
Cc1ccc(C(C)C)c(OCc2ccc(C(=O)Nc3ccccc3C(F)(F)F)o2)c1 | 0.25 | -0.91
COc1ccc(Cc2noc(COc3ccc(Cl)cc3)n2)cc1 | -1 | 0.015
COc1ccc(/C=C(/NC(=O)c2ccccc2)C(=O)N2CCCCC2)cc1 | -0.35 | -0.045
COC1(OC)CCCc2c1no[n+]2[O-] | -0.3 | nt
Cc1cc(=O)oc2cc(NS(=O)(=O)c3ccccc3)ccc12 | -0.35 | 88
O=c1c(CN2CCN(c3cccc(C(F)(F)F)c3)CC2)cc2cccc3c2n1CCC3 | nt | 0.23
NC(=O)c1c(/N=C/c2cc(Br)ccc2O)sc2c1CCC2 | 1 | -0.085
CCOC(=O)N1CCC(NC(=O)c2cc(-c3ccc(F)cc3)[nH]c2C)CC1 | -1 | 0.91
CC1CN(C(C(=O)c2c[nH]c3ccccc23)c2ccccc2)CC(C)O1 (configuration not stated) | -1.1 | nt
Cc1cc(C)cc(NC(=O)c2ccccc2C(=O)O)c1 | -0.95 | -0.34

Additional records:
Compound | AID504770 | CapD inh
COc1ccc(NCN2C(=O)CCC2=O)cc1 | 0.1 | -0.18
CN1CCN(c2nc(-c3ccccn3)nc(-c3ccc(Cl)cc3)c2C#N)CC1 | nt | 0.47
Cc1ccccc1NC(=O)c1c(NC(=O)c2ccc(F)cc2)sc2c1CCCCC2 | nt | 14
O=C(CCc1ccc(S(=O)(=O)N2CCOCC2)cc1)OCC(=O)c1ccc2c(c1)OCCO2 | -0.2 | nt
CC(C)NC(=O)CN1C(=O)c2cccnc2Oc2ccccc21 | -0.6 | -1
CCOC(=O)C1=C(C(=O)OCC)SC(=C2C(=S)C(C)(C)N(C(=O)CN3C(=O)CCC3=O)c3ccc(C)cc32)S1 | nt | 0.08
COc1cc(OC)cc(C(=O)c2ccc(C(=O)NC3(c4ccccc4)CC3)cc2)c1 | -0.8 | 0.57
CCOc1cc2c(cc1CNCC(c1cccs1)N1CCN(C)CC1)OC(C)C2 (configuration not stated) | 0.7 | nt
CCCN(CCC)CCCn1cnc2c([nH]c3ccc(OC)cc32)c1=O | -0.75 | 69
Cc1nc(C)c(C#N)c(-c2c(Cl)cccc2Cl)c1C#N | 0.5 | 0.41
Cc1ccc(N2C(=O)CSC23C(=O)N(CN2CCN(c4ccccc4F)CC2)c2ccccc23)cc1 (configuration not stated) | 0.45 | 0.62
CCc1ccc(-c2cc(C(=O)NCc3ccco3)c3ccccc3n2)cc1 | nt | 20
CC(C)CNC1=NCCCS1 | 2.4 | -0.54
COc1ccc2[nH]cc(CCNC(=O)OCCCc3ccccc3)c2c1 | nt | 0.045
CC1(C)CC(=O)C=C(NCc2ccco2)C1 | -0.3 | nt
Cc1nn(CCC#N)c2c1P(=S)(N1c3ccccc3CC1C)/C(=C1\N(C)c3ccccc3C1(C)C)C=N2 (configuration not stated) | 1.9 | nt
COc1ccc(/C=C/C(=O)NCCN2CCOCC2)cc1S(=O)(=O)N1CCCCC1 | 1 | 0.11
Cc1csc2c(=O)sc(NC(=O)c3ccco3)nc12 | -0.5 | -0.63
COc1ccc(OCC(=O)OC2CCN(C)CC2)cc1 | 1.2 | nt
Cn1cc(C(=O)N2CCN(c3cccc(Cl)c3)CC2)c(=O)c2cc(S(=O)(=O)N3CCOCC3)ccc21 | 0.15 | -0.56
Cc1nc(-c2ccc(S(=O)(=O)NCCCN)s2)cs1 | 0.35 | 3.4
O=C(O)CSc1nc2c(c(C(F)(F)F)n1)CCc1ccccc1-2 | -0.15 | nt
COc1ccc(C(=O)CSc2nc3cc(C)ccc3cc2C#N)cc1 | 2.8 | 0.62
CC(Oc1cc(O)c2c(=O)cc(-c3ccccc3)oc2c1)C(=O)O (configuration not stated) | -1.1 | -0.2
CC(Nc1ccccc1)C(=O)Nc1cc(C(F)(F)F)ccc1Cl (configuration not stated) | -0.8 | 0.02
Cc1ccc(NC(C)c2cc(Cl)ccc2O)cc1 (configuration not stated) | -0.6 | 0.48
O=C(COC(=O)/C=C/c1ccc(F)cc1)Nc1ncccn1 | -0.15 | nt
COc1ccc(C2CC(=O)C3=C(C2)Nc2ccccc2NC3c2cccc(OC)c2OC)cc1OC (configuration not stated) | nt | -1.5
Cc1cc(C)c(C#N)c(N)c1C#N | 0.6 | nt
N#CC(C#N)=Cc1ccc(-c2ccc(SC(F)F)cc2)o1 | 0.65 | nt
NC(=O)c1nsc(C(=O)N(CCc2ccccc2)C(C(=O)NC2CCCC2)c2ccco2)c1N (configuration not stated) | 0.75 | nt
OC(CN1CCN(C2c3ccccc3-c3ccccc32)CC1)c1ccccc1 (configuration not stated) | -0.35 | 1.2
COc1ccc(Br)cc1C1=N/C(=C\c2ccccc2C(F)(F)F)C(=O)O1 | nt | 0
CCN1C(=O)CC(N2CCC(CCc3ccc(OC)cc3)CC2)C1=O (configuration not stated) | -0.25 | -0.22
COc1ccc(/C(C)=N/NC2=NCCCN2)cc1 | nt | -0.57
Cc1nc2ccc(NC(=O)c3cccc(C(F)(F)F)c3)cc2o1 | -0.5 | -0.44
CCOC(=O)c1sc2nc(SCC(=O)NCCc3ccccc3)n(CC3CCCO3)c(=O)c2c1C (configuration not stated) | nt | -1.4
Cc1cc(N=Cc2cc(Cl)cc(Cl)c2O)no1 | 0.5 | -1.6
O=C1CC(c2ccccc2Cl)c2c(ccc3ccccc23)N1 (configuration not stated) | nt | 1
CN(Cc1ccccc1)C(=O)/C=C/C(=O)O | -0.85 | nt
O=S(=O)(c1ccccc1)N1CCCC(C(F)(F)F)C1 (configuration not stated) | 2.3 | nt
CCn1cc(C(=O)N(Cc2nc3ccccc3c(=O)[nH]2)C(C)C)c(=O)c2ccc(C)nc21 | -0.1 | nt
Cc1ccc2oc3oc(=O)cc(C)c3c2c1 | -1.1 | 1.8
CCN(Cc1ccncc1)C(=O)c1cc2c(C)nn(-c3ccc(Cl)cc3)c2s1 | -0.65 | -0.37
CO[C@@]1(NC(=O)C2SC(=C(C(N)=O)C(=O)O)S2)C(=O)N2C(C(=O)O)=C(CSc3nnnn3C)CS[C@@H]21 (some centres not stated) | nt | 0.25

Exported with values under each structure: part of the list above
The line under a structure holds: AID504770	CapD inh
> COc1ccc(Br)cc1C1=N/C(=C\c2ccccc2C(F)(F)F)C(=O)O1
→ nt	0
> CCN1C(=O)CC(N2CCC(CCc3ccc(OC)cc3)CC2)C1=O (configuration not stated)
→ -0.25	-0.22
> COc1ccc(/C(C)=N/NC2=NCCCN2)cc1
→ nt	-0.57
> Cc1nc2ccc(NC(=O)c3cccc(C(F)(F)F)c3)cc2o1
→ -0.5	-0.44
> CCOC(=O)c1sc2nc(SCC(=O)NCCc3ccccc3)n(CC3CCCO3)c(=O)c2c1C (configuration not stated)
→ nt	-1.4
> Cc1cc(N=Cc2cc(Cl)cc(Cl)c2O)no1
→ 0.5	-1.6
> O=C1CC(c2ccccc2Cl)c2c(ccc3ccccc23)N1 (configuration not stated)
→ nt	1

(next part)
Compound | AID504770 | CapD inh
COc1ccc(CCNC(=O)c2sc3ncn(CC(=O)Nc4cccc(C(F)(F)F)c4)c(=O)c3c2C)cc1OC | nt | 0.41
CC(=O)Nc1cccc([N+](=O)[O-])c1[N+](=O)[O-] | nt | -0.21
COC(=O)c1cc(OC)c(OC)cc1NCC(=O)N1CCOCC1 | 1.8 | nt
COc1cc(OC)nc(N2CCN(C)CC2)n1 | nt | -0.74
Cc1cc(C)c(C(=O)O)c(CC(C)(C)C(=O)N2CCC(O)(c3ccc(Cl)cc3)CC2)c1 | nt | 0.47
CSCCC(CO)NS(=O)(=O)c1c(C)c(C)cc(C)c1C (configuration not stated) | nt | -0.18
CON(C)C(=O)c1cn2c(n1)sc1ccccc12 | nt | -0.34
O=C(O)c1ccc(N2CCOCC2)cc1 | -0.45 | nt
O=C(O)C(Cc1ccccc1)Nc1ncnc2sc3c(c12)CCC3 (configuration not stated) | 0.65 | -0.12
CCOc1ccc(Sc2cc(C(=O)N3CCCC3)c3ccccc3n2)cc1 | 0.05 | 1.3
CCCCCc1ccc(NC(=O)NNc2cc(C(F)(F)F)cc(C(F)(F)F)c2)cc1 | nt | 0.2
CC(C)CNC(=O)c1cnc2n(c1=O)CCS2 | -1.1 | nt
O=C(O)CCc1nc2ccccc2n(CCc2ccccc2)c1=O | -1.1 | 41
CCCc1c(C)nn(C(=O)/C(C#N)=N/Nc2ccccc2[N+](=O)[O-])c1C | nt | -0.68
O=C1c2ccccc2C(=O)N1Cc1ccc(Cl)cc1 | 0.4 | nt
